# LASV entry inh – qHTS for Inhibitors of binding or entry into cells for Lassa Virus. Lassa virus pseudotype entry inhibition, cell reporter; control for the full effect not named in the record. Potency, µM (series often up to 37.9 µM), inactives show at the highest dose activity change, negative = inhibition, usual class: inhibitors. hit rate 1.2% among 300,000; active means well fitted inhibition curve with a large enough effect; inconclusive means small, poorly fitted or top-dose-only effect, or effect the other way; inactive means flat fitted curve, though single readings scatter; tested in HEK293 cells; further: on the % scale 0 is the no-effect control and ±100 the full control effect; nearly all actives have a fitted effect of over 50% in size; luciferase read-out
# RE007 growth inh – qHTS Assay for Inhibitors of the HIV-1 protein Vpr; S. pombe RE007 Vpr strain, BacTiter-Glo ATP luminescence, 24 h; control for the full effect not named in the record; Potency, µM (series often up to 92.2 µM), inactives show top-dose activity change, negative = less growth; hit rate 0.21% among 360,000; active = well fitted falling curve with a large enough effect; inconclusive = small, poorly fitted or top-dose-only effect; inactive = no such curve, though single readings can be large or run the other way;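 further: on the % scale 0 is the no-effect control and ±100 the full control effect; nearly all actives have a fitted effect of over 50% in size; the assay follows cell death caused by Vpr and the record does not say whether a fall means rescue or toxicity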
#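 Fission yeast RE007 carrying one integrated HIV-1 vpr copy, seeded at OD 0.01 in PMG+AL medium with 23 nL pinned compound. Grown 24 h at 30 degrees; viability read by BacTiter-Glo luminescence after 5 min.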
# SARS PLpro yeast – qHTS of Yeast-based Assay for SARS-CoV PLP | Potency, µM (titrated, usually from 32.9 µM), for inactives: at the highest dose activity, positive = growth rescue | hit rate 0.19% among 330,000 | S. cerevisiae expressing SARS-CoV PLpro, growth rescue; control for the full effect not named in the record; further: 0% is about no effect; nearly all actives have a fitted effect of over 55% in size; growth read by luminescence after 48 h
# 2A StopGo – High Throughput Screening for Foot and Mouth Disease Virus Antivirals | AID 1159524, 2015 | human cells with a luciferase reporter of 2A StopGo recoding; control for the full effect not named in the record | hit rate 1.2% among 410,000 | Potency, µM (top dose mostly 57.9 µM), without a hit: top-dose signal change, negative = less light; active = well fitted falling curve with a large enough effect; inconclusive = small, poorly fitted or top-dose-only effect; inactive = no such curve, though single readings can be large or run the other way; tested in HEK293T cells; further: on the % scale 0 is the no-effect control and ±100 the full control effect; nearly all actives have a fitted effect of over 45% in size; luciferase light after 4 h
# Marburg entry inh – qHTS for inhibitors of binding or entry into cells for Marburg Virus; Marburg virus pseudotyped entry inhibition, cell reporter; control for the full effect not named in the record; about a third of the inactives were read at about 46 µM; Potency, µM (highest dose often 37.8 µM), without a hit: top-dose activity change, negative = inhibition, most hits filed as inhibitors; hit rate 1.8% among 300,000; AID 540276, 2011; active = well fitted inhibition curve with a large enough effect; inconclusive = small, poorly fitted or top-dose-only effect, or effect the other way; inactive = flat fitted curve, though single readings scatter; tested in HEK293 cells; about a fifth of its hits are not listed in these tables; further: on the % scale 0 is the no-effect control and ±100 the full control effect; luciferase read-out
# Cruzain inh Det – qHTS Assay for Promiscuous and Specific Inhibitors of Cruzain (with detergent) | Potency, µM, without a hit: max response, negative = inhibition, usual class: inhibitors | purified cruzain, Z-FR-AMC fluorescence, 0.01% Triton | hit rate 0.43% among 200,000 | AID 1478, 2009 | Cruzipain (Trypanosoma cruzi), P25779; active means well fitted curve in the direction sought with a large enough effect; inconclusive means small, poorly fitted or top-dose-only effect, or another doubt; inactive means no such curve, though single readings can be large; an effect the other way counts as inactive or inconclusive;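 further: plate controls were neutral wells for no effect and buffer without enzyme for full effect; nearly all actives have a fitted effect of over 40% in size; top concentration of the series not given in the record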
# Target sequence (P25779 123-467 limits assumed): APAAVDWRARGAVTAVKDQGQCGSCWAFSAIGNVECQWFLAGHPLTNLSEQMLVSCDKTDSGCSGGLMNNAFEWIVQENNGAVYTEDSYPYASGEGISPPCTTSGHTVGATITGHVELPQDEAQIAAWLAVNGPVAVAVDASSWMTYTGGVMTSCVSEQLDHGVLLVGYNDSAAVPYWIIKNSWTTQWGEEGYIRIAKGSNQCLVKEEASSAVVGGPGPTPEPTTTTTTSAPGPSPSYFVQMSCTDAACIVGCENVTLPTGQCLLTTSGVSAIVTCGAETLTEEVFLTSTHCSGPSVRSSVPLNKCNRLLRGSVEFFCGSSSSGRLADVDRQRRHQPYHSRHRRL
#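 Enzyme 1.5 nM, Z-FR-AMC 2 uM, NaOAc 100 mM pH 5.5, DTT 5 mM, Triton X-100 0.01%; 15 min RT compound preincubation; kinetic ex360/em450, 60 s delta.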
# NS1 function inh – qHTS Assay for Inhibitors of Influenza NS1 Protein Function. hit rate 0.4% among 270,000. AID 2326, 2010. S. cerevisiae slowed by influenza A NS1, growth recovery by OD600. Potency, µM (series often up to 46.1 µM), without a hit: top-dose activity, positive = more growth; further: actives are rising curves; nearly all actives have a fitted effect of over 50% in size
#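 S. cerevisiae expressing influenza A NS1, grown in glucose, washed, then diluted 1:100 into pH 6.0 -URA galactose medium with 23 nl compound. Growth recovery read as OD600; NS1-free strain serves as control.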
# Cruzain inh noDet – qHTS Assay for Promiscuous and Specific Inhibitors of Cruzain (without detergent); Cruzipain (Trypanosoma cruzi), P25779; purified cruzain, Z-FR-AMC fluorescence, no detergent; Potency, µM, for inactives: max response, negative = inhibition, actives largely listed as inhibitors; hit rate 2.3% among 200,000; active means well fitted curve in the direction sought with a large enough effect; inconclusive means small, poorly fitted or top-dose-only effect, or another doubt; inactive means no such curve, though single readings can be large; an effect the other way counts as inactive or inconclusive;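 further: plate controls were enzyme without inhibitor for no effect and buffer without enzyme for full effect; nearly all actives have a fitted effect of over 40% in size; top concentration of the series not given in the record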
#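 Purified cruzain at 1.5 nM, pre-incubated 15 min with compound at room temperature in 100 mM sodium acetate pH 5.5, 5 mM DTT, 0.00005% Triton X-100. Reaction started with 2 uM Z-FR-AMC; AMC fluorescence increase over 60 s gives rate.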
# Active calls of the source: *; u = inconclusive; x = no result given; & = joins results of further samples; [ ] = dose if it differs, or a comment. Unless noted, the call rests on the fitted dose curve; in most records, active means well fitted rising curve with a large enough effect; inconclusive means small, poorly fitted or top-dose-only effect; inactive means no such curve, though single readings can be large or run the other way. Potency means the concentration at half of the fitted maximal effect. Rows are unselected; any-hit rate near 4.8%.
Compound | LASV entry inh | RE007 growth inh | SARS PLpro yeast | 2A StopGo | Marburg entry inh | Cruzain inh Det | NS1 function inh | Cruzain inh noDet
COC1=C/C(=C/c2c(N)n3nc(CC(=O)N4CCOCC4)sc3nc2=O)C=CC1=O | u | -3% | 4% | 21% | 3%[46.1 µM] | x | 8% | x
CCOC(=O)c1cnc2c(C(F)(F)F)cccc2c1N1CCOCC1 | -4% | 4% | -4% | 32µM* | -24% | -1.6% | -12% | 4%
COc1ccc(C(C)=O)cc1CSc1nc2ccccc2c(=O)n1-c1cccc(C)c1 | -1% | 22% | -24% | -10% | -18% | -0.9% | 8% | u
Cc1c(C(=O)NC(=S)NCC(C)C)oc2ccccc12 | 0% | 4% | -10% | 52%[activator] | u | -6.4% | 0% | -1%
COC(=O)c1ccc(-n2c(C)cc(-c3csc(NC(=O)c4ccc(S(=O)(=O)N(C)C)cc4)n3)c2C)cc1 | u | 1% | -31% | u | -2% | -2.3% | 25% | 4µM*
COC(=O)c1c(C)[nH]c(C(=O)/C=C/c2ccccc2)c1C | -2% | 1% | -8% | -15% | u | -3.3% | 3% | u
CC(C(=O)NC1CCCC1)N(C(=O)Cn1nnc(-c2ccc(F)cc2)n1)c1ccccc1F (stereo not given) | u | -16% | 2% | -29% | 8.2µM* | x | 5% | x
Cc1cc(C)c(S(=O)(=O)c2cccc(C)c2C)c(=O)[nH]1 | -1% | -11% | 0% | 36%[activator] | -21% | x | 12% | x
COc1ccc(NC(=O)NC2(C)CCS(=O)(=O)C2)cc1 (stereo not given) | 1% | -8% | 10% | -2% | 0%[46.1 µM] | x | 18% | x
CCS(=O)(=O)c1ccc2c(c1)N(S(C)(=O)=O)CC(C(=O)NCCOC)O2 (stereo not given) | -1% | 12% | 5% | 10% | 3% | 4.3% | 7% | 9%
O=C(NNC(=O)c1cc2cc3ccccc3nc2s1)c1cccc(Cl)c1 | 3% | 6% | 4% | -2% | 27% | u | -6% | 25µM*
Cc1ccc(C(=O)OCc2cn(-c3ccccc3)nn2)cc1 | 0% | -26% | -2% | -7% | u | x | x | x
Nc1ccc(C(=O)NC23CC4CC(CC(C4)C2)C3)cc1 | u | 39% | -3% | 1% | 9% | x | -17% | x
CCOc1ccccc1NC(=O)c1c(NC(=O)C(C)Oc2cccc(Cl)c2)sc2c1CCCCC2 (stereo not given) | 16%[46.1 µM] | x | x | 5% | x | -1.0% | x | -12%
COC(=O)c1sccc1-n1cccc1C(=O)C(=O)Nc1ccc(F)cc1 | u | 6% | -1% | -17% | 31%[46.1 µM] | x | -2% | x
Cc1ccc(C(=O)NC(N(C)C)C(Cl)(Cl)Cl)cc1 (stereo not given) | x | 1% | -3% | 13% | x | x | 2% | x
CC(O)COc1ccc(/C(=N/O)c2ccccc2)cc1 (stereo not given) | 14% | -1% | -2% | 42%[activator] | u | 1.7% | 6% | -1%
Cc1cccc(C)c1NC(=O)CN(C)C(=O)CC1CC2CCC1C2 (stereo not given) | 13% | 8% | 4% | -7% | -16% | x | x | x
COc1ccc(C(=O)COC(=O)CCn2nnc(-c3cccc(O)c3OC)n2)cc1 | -8% | -16% | 0% | x | -8% | -1.5% | -3% | -2%
CC1CCN(c2ccc(-c3nc(C(C)C)no3)cc2[N+](=O)[O-])CC1 | 0%[46.1 µM] | x | x | 39%[activator] | 13%[46.1 µM] | -11% | x | u

# Molecules listed so far containing an aryl methoxy group, in the order listed:
Compound | LASV entry inh | RE007 growth inh | SARS PLpro yeast | 2A StopGo | Marburg entry inh | Cruzain inh Det | NS1 function inh | Cruzain inh noDet
COc1ccc(C(C)=O)cc1CSc1nc2ccccc2c(=O)n1-c1cccc(C)c1 | -1% | 22% | -24% | -10% | -18% | -0.9% | 8% | u
COc1ccc(NC(=O)NC2(C)CCS(=O)(=O)C2)cc1 (stereo not given) | 1% | -8% | 10% | -2% | 0%[46.1 µM] | x | 18% | x
COc1ccc(C(=O)COC(=O)CCn2nnc(-c3cccc(O)c3OC)n2)cc1 | -8% | -16% | 0% | x | -8% | -1.5% | -3% | -2%

# The list continues.
Compound | LASV entry inh | RE007 growth inh | SARS PLpro yeast | 2A StopGo | Marburg entry inh | Cruzain inh Det | NS1 function inh | Cruzain inh noDet
Cc1ccc(NC(=O)N2CCC(n3c(C)nc4cccnc43)CC2)c(Cl)c1 | -11%[46.1 µM] | x | x | -15% | x | 1.1% | x | 2%
CC(C)(C)OC(=O)CNC(=O)c1[nH]cnc1C(=O)Nc1ccc(Cl)cc1 | x | 15% | 1% | -24% | x | x | -37% | x
NC(N)=NN=C1CCC(c2ccccc2)CC1 (stereo not given) | -8%[46.1 µM] | -9% | 6% | 7.1µM* | 14%[46.1 µM] | x | -6% | x
Cc1ccc(S(=O)(=O)NN2C(=O)c3ccccc3NC2c2ccccc2O)cc1 (stereo not given) | -1%[46.1 µM] | 1% | 1% | 9% | 12%[46.1 µM] | x | x | x
CC1(C)Cc2c(C#N)c(SCC(=O)c3ccccc3)nc(N3CCOCC3)c2CO1 | u | 0% | 14% | -12% | x | -7.9% | 21% | u
CSC1=NCCN1C(=O)Cc1ccc(Cl)cc1 | x | 20% | -4% | -20% | 1% | 1.1% | -3% | 1%
CN1C(=O)/C(=C/c2ccccc2OCc2cccc(F)c2)NC1=S | -1% | -12% | 1% | -20% | -1%[46.1 µM] | -3.4% | 8% | -7%
CCOCCCNC(=O)CN1C(=O)COc2ccc(S(=O)(=O)N3CCCCCC3)cc21 | -5%[46.1 µM] | 12% | 14% | 10%&-5% | 9%[46.1 µM] | 1.5% | 1% | -4%
CC(=O)Oc1c(-c2ccc(Br)o2)oc2ccccc2c1=O | u | -2% | -16% | -7% | u | x | -120% | x
C/C(=N/NC(=O)c1ccc2c(c1)OCO2)c1cccc([N+](=O)[O-])c1 | 17%[46.1 µM] | 0% | -2% | 24% | u | x | -9% | x
CCCc1c(C(=O)Nc2ccc(OC)cc2)cnn1-c1ccccc1 | x | 14% | -1% | 2% | x | x | -6% | x
Cc1c(F)cccc1NC(=O)CCCCCC1NC(=O)NC1C (stereo not given) | 17% | 7% | 0% | 44%[activator] | 20% | x | x | x
CCOc1ccc(NC(=O)Nc2cccn(Cc3ccccc3)c2=O)cc1 | u | 15% | -2% | u | -20%[46.1 µM] | x | -13% | x
C(=N\Nc1nc2ccccc2[nH]1)/c1ccc2c(c1)OCCO2 | x | -17% | -2% | -15% | x | x | -32% | x
COCc1nnc(NC(C)=O)s1 | 3%[46.1 µM] | -27% | 0% | -7% | 8%[46.1 µM] | x | -2% | x
Cc1ccc(-n2c(=O)c3sccc3n(Cc3cc(=O)n4ccccc4n3)c2=O)cc1 | -2%[46.1 µM] | -9% | 4% | 19%&-14% | u | -9.5%&-4.4% | 19% | -6%&-6%
O=C(O)c1ccc(/C=N/NC(=O)c2ccc(Br)cc2)cc1 | 4% | -25% | -14% | -5% | u | -3.3% | 4% | 19%
O=C(Nc1ccccc1F)c1ccncc1 | 24% | -1% | -2% | 23% | 1% | 2.0% | 2% | 0%
Cc1sc2nc(SCC(=O)NCCO)n(-c3ccccc3)c(=O)c2c1C | x | 4% | 0% | -2% | u | x | 1% | x
COc1ccc(CCC(=O)N2CCc3c([nH]c4ccccc34)C2c2ccc(F)cc2)cc1 (stereo not given) | u | x | x | -15% | x | -0.3% | x | u
Cn1nnnc1SCC(=O)Nc1ccccc1Br | 8%[46.1 µM] | 7% | -1% | 1% | 5%[46.1 µM] | x | 0% | x
C=CCn1c(SCC(=O)c2cc(C)n(C(C)COC)c2C)nc2sc(C)c(C)c2c1=O (stereo not given) | 9.2µM* | -13% | 0% | u | -10%&-10% | -4.6% | 13% | u
CC(C)C1=NN2C(=N)CC(=O)N=C2S1 | u | -3% | 2% | x | 0% | -0.9% | 25% | 1%
COc1ccccc1CCNC(=O)CNC(=O)c1ccc2ccccc2c1 | -11%[46.1 µM] | -3% | -1% | 14% | u | x | -16% | x
COc1ccccc1C(=O)COC(=O)Cn1[nH]c(=O)c2ccccc2c1=O | -2% | -21% | -1% | 6% | u | x | x | x
O=C1C2CCCN2C(c2ccccc2F)N1c1ccc(Cl)cc1 (stereo not given) | -18% | 11% | -2% | 8% | u | 1.1% | -3% | 4%
O=C(CCn1cccn1)N1CCCC(N2CCN(c3cccc(Cl)c3)CC2)C1 (stereo not given) | -13% | 6% | -4% | 15% | 28% | x | 11% | x
O=C1CC(c2ccccc2)CC(O)=C1C=NCc1ccncc1 (stereo not given) | -27% | -13% | 0% | -13% | -3%[46.1 µM] | x | x | x
Cc1noc(C)c1C(=O)Nc1cccnc1 | 13% | 0% | 1% | -17% | 4% | 3.2% | 7% | -5%
CCOC(=O)c1nn(-c2ccc(C)cc2)c(=O)cc1OCC(=O)Nc1cc(C)ccc1OC | 4% | 9% | 5% | 13% | 17% | x | x | x

# Look-ups from the results shown.
# Value of C=CCn1c(SCC(=O)c2cc(C)n(C(C)COC)c2C)nc2sc(C)c(C)c2c1=O (stereo not given) under Cruzain inh Det: -4.6%
# Value of CC(C)C1=NN2C(=N)CC(=O)N=C2S1 under SARS PLpro yeast: 2%
# Value of O=C(CCn1cccn1)N1CCCC(N2CCN(c3cccc(Cl)c3)CC2)C1 (stereo not given) under 2A StopGo: 15%
# Value of COc1ccccc1CCNC(=O)CNC(=O)c1ccc2ccccc2c1 under 2A StopGo: 14%

# Only Cruzain inh Det and 2A StopGo (two entries from above):
SMILES	Cruzain inh Det	2A StopGo
COc1ccccc1CCNC(=O)CNC(=O)c1ccc2ccccc2c1	x	14%
CC(C)C1=NN2C(=N)CC(=O)N=C2S1	-0.9%	x

# Source: PubChem BioAssay (National Center for Advancing Translational Sciences (NCATS))
